PV pol inh: inhibitors of poliovirus RNA polymerase binding and polymerization; hit rate 0.66% among 150,000; AID 588519; P03300; % elongation, % (compound at 16.7 µg/mL); poliovirus polymerase elongation, fluorescence polarization; stronger effect = lower value; in the data active = % elongation below about 90%; note: some results filed as inactive read as strong as hits
Mtb MenB inh: blocks the Mycobacterium tuberculosis MenB enzyme; P9WNP5; MenB enzyme assay, absorbance read-out; some hits fall short of the stated cut; inhibition, %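 (about 12 µg/mL by stock and volumes)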; hit rate 0.43% among 100,000;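 active = mean of two replicates above 30%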;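 note: 0% = no compound and 100% = wells with inactive enzyme; the first replicate is given; strong numbers were not always called active; inactives centre near -10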
Target sequence (P9WNP5 whole entry, looked up): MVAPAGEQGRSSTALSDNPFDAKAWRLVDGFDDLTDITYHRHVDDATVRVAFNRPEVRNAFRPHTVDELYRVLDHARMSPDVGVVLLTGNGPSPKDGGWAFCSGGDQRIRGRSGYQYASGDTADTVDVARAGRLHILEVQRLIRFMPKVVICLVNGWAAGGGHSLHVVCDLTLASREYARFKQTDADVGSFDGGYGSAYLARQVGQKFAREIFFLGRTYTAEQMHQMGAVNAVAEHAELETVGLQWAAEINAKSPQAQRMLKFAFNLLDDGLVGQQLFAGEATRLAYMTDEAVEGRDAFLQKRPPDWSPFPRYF
Mtb MbtI inh: blocks the Mycobacterium tuberculosis siderophore enzyme MbtI. P9WFX0. purified MbtI enzyme, fluorescence intensity read-out. inhibition, %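 (about 17 µg/mL by stock and volumes)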. hit rate 0.89% among 100,000;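 active = above 50% in both replicates, above 80% if mildly self-fluorescent; inactive = the rest, strongly fluorescent compounds included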;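 note: 0% = mean of negative and 100% = mean of positive controls; one replicate is shown; some compounds called inactive have numbers as strong as hits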
Target sequence (P9WFX0 whole entry, looked up): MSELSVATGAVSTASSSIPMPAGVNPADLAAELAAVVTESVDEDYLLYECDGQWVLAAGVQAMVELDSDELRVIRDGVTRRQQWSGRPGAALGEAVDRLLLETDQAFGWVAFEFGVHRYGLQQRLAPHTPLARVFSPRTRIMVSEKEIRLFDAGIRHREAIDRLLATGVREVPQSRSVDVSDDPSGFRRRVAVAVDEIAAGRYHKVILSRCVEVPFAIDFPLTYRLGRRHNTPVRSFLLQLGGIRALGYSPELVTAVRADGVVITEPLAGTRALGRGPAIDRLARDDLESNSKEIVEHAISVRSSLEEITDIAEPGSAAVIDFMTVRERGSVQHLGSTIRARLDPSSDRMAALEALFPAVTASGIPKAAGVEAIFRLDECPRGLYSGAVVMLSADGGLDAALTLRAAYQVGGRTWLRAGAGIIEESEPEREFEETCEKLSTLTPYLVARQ
PV pol inh intensity: also measured in PV pol inh; calls as there; % elongation; measured here: total intensity read-out; formula for this scale not given here;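 total fluorescence in place of polarization; lower means less elongation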
Numbers without * were called inactive; / = not tested or not shown.

SMILES	PV pol inh	PV pol inh intensity	Mtb MenB inh	Mtb MbtI inh
Nc1ccnc(C(F)(F)F)c1C(=O)c1ccccc1	100	98	-48	/
CCCC(C(=O)NC1CCCC1)N(Cc1ccccc1)C(=O)Cn1nnc(-c2ccc(C)o2)n1 (stereo unspecified)	105	101	-39	-10
CC(C)N(CCNc1nnnn1-c1ccccc1)C(C)C	/	/	-34	-11
S=c1nc(-c2ccccc2)[nH][nH]1	99	100	9	55
N#Cc1ccccc1CSc1nsc(SCc2ccccc2C#N)c1C#N	100	103	-24	/
O=S(=O)(c1ccc(-n2cnnn2)cc1)N1CCNCC1	102	99	3	19
O=C(CNCC(c1ccc(F)cc1)N1CCOCC1)NCc1ccccc1Cl (stereo unspecified)	99	105	-9	-3
CCOC(=O)c1oc2c(c1C)-c1nn(CC)cc1CC2	100	101	-31	21
CC1(C)CC(=O)C(CC(=O)Nc2cc(C(F)(F)F)ccc2Cl)C(=O)C1	101	100	/	-6
Ic1ccc(Nc2nc3nonc3nc2N/N=C\c2ccco2)cc1	99	107	29*	2
CC(C)(C)OC(=O)N1CCC(n2nccc2N)CC1	100	102	-25	-8
COc1ccc(CNC(=O)c2oc3ccc4nc(N(C)C)sc4c3c2C)cc1	99	103	4	-8
CC1CC(NS(=O)(=O)c2cc3c4c(c2)CCN4C(=O)CC3)CC(C)(C)C1 (stereo unspecified)	103	97	-12	4
CC(C(=O)N(C)Cc1ccccc1)N1CCN(C/C=C/c2ccccc2)CC1 (stereo unspecified)	98	102	3	-2
C=CCC(NCc1ccco1)c1ccccc1 (stereo unspecified)	105	102	-21	-23
CCC(NC(=O)Nc1cc(C)ccc1OC)c1ccccc1 (stereo unspecified)	107	100	-42	-13
CCN(CC)C(=O)CSc1[nH]c2ccccc2c(=O)c1C(=O)OC	103	110	11	13
Cc1noc(C)c1CSc1ncccc1C(=O)Nc1ccnn1C1CCN(C)CC1	101	105	0	15
C/C(CCC1CC(C)OC1=O)=N\NC(N)=O (stereo unspecified)	99	103	-3	-14
O=c1ccn2c(n1)OC1C(O)C(CO)OC12 (stereo unspecified)	101	104	-19	-46
Cc1sc(NC(=O)c2ccccc2)c(C(=O)N2CCCCC2)c1C	95	94	1	/
COc1ccccc1/C=C/C(=O)NCCc1ccccn1	101	99	-8	27
c1ccc(-c2cnc[nH]2)cc1	100	104	4	1
O=C(NCc1ccco1)c1cc2nc3c(c(C(F)(F)F)n2n1)CCc1ccccc1-3	112	109	-2	/
COCCn1cc(C(=O)c2cc(F)ccc2OCC(=O)Nc2cc(C)on2)cc(C#N)c1=O	105	120	-13	-6
CN1CCN(C(CC(=O)Nc2ccc(Oc3ccccc3)cc2)C(=O)O)CC1 (stereo unspecified)	103	106	-2	-10
CC(C)c1n[nH]c(=S)n1C	103	107	-3	2
CCOC(=O)Nc1ccc2c(c1)N(C(=O)CCNC)c1ccccc1S2	99	104	18	2
O=C(CSc1nc2ccccc2c(=O)n1-c1ccccc1)N1CCOCC1	100	103	-15	2
O=C1/C(=C/c2cccnc2)SC(=S)N1N1CCOCC1	/	/	-10	3
CCCCn1c(CO)cnc1S(=O)(=O)CC1CCC1	101	103	9	-5
CCN(CC)C(=O)N(CC)C1CCCCC1	101	105	-58	-21
N#Cc1c2c(c(-c3ccccc3)[nH]c1=S)CCCC2	101	99	-22	51*
CCOC(=O)c1nc2c3ccccc3ncn2n1	100	96	-20	3
Cc1cccc(NC(N)=S)c1	100	102	-24	-14
O=C(NCc1cccs1)c1csc(C2COc3ccccc3O2)n1 (stereo unspecified)	98	94	-21	67
Cn1c(SCc2cccnc2)nnc1C1CCCN(C(=O)C2CCCO2)C1 (stereo unspecified)	102	102	-50	2
O=C(NCCCc1ccccc1)c1cc2c(s1)CS(=O)(=O)C2	101	105	2	7
CCN1/C(=C2\C(=O)N(C)C(=S)N2c2ccccc2)C=Cc2cc(C)ccc21	101	96	-3	9
COc1ccc(-c2nnc(SCC(=O)N(C)C)n2N)cc1OC	103	107	9	9
CSc1nc2ccccc2n(C)c1=O	101	102	6	10
Cc1ccc(OC(=O)C2COc3ccccc3O2)cc1C (stereo unspecified)	104	101	-29	-16
Cc1ccc(C2CC(c3ccccc3C)n3nc(N)nc3N2)cc1 (stereo unspecified)	103	105	-14	14
C1=Nn2c(nnc2-c2ccncc2)SC(c2ccccc2)=C1	101	102	3	-3
Oc1c(C(c2cccs2)N2CCN(c3ccccc3)CC2)sc2ncnn12 (stereo unspecified)	100	107	-9	18
Cc1cc(C(=O)Nc2ccc(C(C)C)cc2)n(-c2ccccc2)n1	101	104	-17	4
CCOC(=O)c1sc2nc(C)cc(C)c2c1NC(=O)c1cccs1	100	92	-9	-7
O=C(NC1CCCc2ccccc21)c1ccc2c(c1)OCO2 (stereo unspecified)	102	103	1	-3
Nc1cccc2nonc12	101	103	-144	19
CCOc1cc(C2C(C(=O)N3CCCCC3)=C(C)NC3=C2C(=O)CCC3)ccc1OC(C)=O (stereo unspecified)	101	101	-16	36

Grouped by structure: the entries above containing two or more sulfur atoms
SMILES	PV pol inh	PV pol inh intensity	Mtb MenB inh	Mtb MbtI inh
N#Cc1ccccc1CSc1nsc(SCc2ccccc2C#N)c1C#N	100	103	-24	/
O=C1/C(=C/c2cccnc2)SC(=S)N1N1CCOCC1	/	/	-10	3
O=C(NCc1cccs1)c1csc(C2COc3ccccc3O2)n1 (stereo unspecified)	98	94	-21	67
O=C(NCCCc1ccccc1)c1cc2c(s1)CS(=O)(=O)C2	101	105	2	7
Oc1c(C(c2cccs2)N2CCN(c3ccccc3)CC2)sc2ncnn12 (stereo unspecified)	100	107	-9	18
CCOC(=O)c1sc2nc(C)cc(C)c2c1NC(=O)c1cccs1	100	92	-9	-7

Carrying on:
SMILES	PV pol inh	PV pol inh intensity	Mtb MenB inh	Mtb MbtI inh
Cc1noc(C)c1CN(C(=S)NC(C)C)c1ccccc1	107	102	-14	3
CC(C)C(NS(=O)(=O)c1cccc2nsnc12)C(=O)NC1CCCC(C)C1C (stereo unspecified)	103	102	-15	-2
O=C(CSc1nnc(CNc2cccc(Cl)c2)o1)Nc1cccc(Cl)c1	102	103	8	-11
CCc1ccc2[nH]c(=O)c(C(c3nnnn3C(C)(C)C)N3CCCCC3)cc2c1 (stereo unspecified)	103	104	-42	-20
CCCSc1nnc(Cn2c(=O)sc3ccccc32)n1CCc1ccccc1	102	103	-3	4
O=C1c2cc(OCCN3CCOCC3)ccc2-c2ccc(OCCN3CCOCC3)cc21	101	96	-2	-1
COc1ccc(OCC(=O)N(C)C)cc1	99	100	-21	4
O=C(NC1CCCC1)c1cc(-c2ccc(Cl)s2)nc2ccccc12	100	100	-12	13
CC1(C)CC(=O)C=C(Nc2ccc(Br)cn2)C1	104	101	/	-9
O=C(Oc1ccc2c(c1)OCO2)c1cc2c(s1)CCCC2	103	100	-9	-10
COc1ccc(O)c(C(=O)c2cc(C#N)c(=O)n(CCN3CCOCC3)c2)c1	100	96	-14	12
Cc1noc2ncnc(N3CCC(C(=O)N4CCN(C(=O)c5ccco5)CC4)CC3)c12	100	103	-7	-14
Cc1ccc(O)c(N/C=C/C(=O)C(C)(C)C)c1	101	105	-15	-6
CCOC(=O)c1ccc2nc(C(F)(F)F)cc(NC3CCN(Cc4ccccc4)CC3)c2c1	106	116	-20	76
O=C(CCC1COc2ccccc2O1)Nc1ncccc1O (stereo unspecified)	103	107	6	3
Cc1ccc(-c2nc3ncncn3c2Nc2cccc(C)c2)cc1	100	103	-4	-12
CN(Cc1ccccc1)C(=O)Cn1cnc2c(cnn2C)c1=O	102	103	6	-4
CSc1ccc(CNCCCn2ccnc2)cc1	98	102	8	-3
CCOC(=O)Cn1ccc(C(F)(F)F)n1	102	104	/	-12
O=C1NCCN1CCNC(=S)NC1CC1	101	103	-2	-2
CCc1ccc2nc(N)sc2c1	98	91	-21	1
CN1C(=O)/C(=C\c2coc3ccccc3c2=O)c2ccccc21	103	109	-29	0
NNC(=O)CCn1c(-c2ccccc2)c(-c2ccccc2)c2ccccc21	101	102	-34	103
CC(C)Cn1c2ccc(Br)cc2c2nc3ccccc3nc21	102	104	-23	-124
CC1=CC(=O)C=C(C)C1=NS(=O)(=O)c1ccccc1	103	97	-11	96*
CC(C)CN(CC(C)C)C(=O)C1CCN(S(=O)(=O)c2cccc3nsnc23)CC1	103	101	-15	-5
CCN1CCc2nc(NC(=O)Cc3cn4ccsc4n3)sc2C1	104	100	-11	2
CC1=CC(=C2C(=O)NC(=O)NC2=O)C=C(C)O1	96	95	-150	20
C=CCN(c1ccccc1C(=O)NCC(=O)O)S(=O)(=O)c1ccccc1	104	99	-9	13
COc1cc(OC)cc(-c2nnc(SC(C)C(=O)c3ccccc3)o2)c1 (stereo unspecified)	108	118	-48	4
C/C(N)=C(/C#N)C(=O)COc1ccc(C#N)cc1	102	111	-16	-11
COc1ccc(-c2cc3nc(C)cc(C)n3n2)cc1	100	104	-21	71
CCC(C)N(Cc1c[nH]c2ccccc12)C(=S)Nc1cccc(C)c1 (stereo unspecified)	103	100	-46	8
COCCNc1oc(COc2ccc(Br)cc2)nc1C#N	101	103	-22	-15
O=C(NCc1ccccn1)C(c1ccccc1)c1ccccc1	107	108	-11	/
COP(=O)(CC(=O)c1ccccc1)CC(=O)c1ccccc1	104	112	-16	-6
O=C(NCC1(N2CCOCC2)CCCCC1)c1ccc(Cl)c(S(=O)(=O)NCc2ccco2)c1	102	104	1	2
O=S(=O)(c1cccc(-c2n[nH]c(=S)n2-c2ccccc2)c1)N1CCCC1	98	106	-61	13
C=CCn1c(N2CCC(C(N)=O)CC2)nc2c1c(=O)n(C)c(=O)n2C	100	103	18	4
Cc1nnc(CSc2ccc(Cl)c(C(F)(F)F)c2)o1	100	97	-33	10
COC(=O)c1ccc(CSc2nncn2-c2ccccc2)cc1	103	108	-7	-11
O=c1[nH]cc(Sc2cccc3cccnc23)c(=O)[nH]1	119	213	-43	/
CC(=O)N1CCC(N(CCN2CCOCC2)C(=S)Nc2cc(F)cc(F)c2)CC1	98	100	-16	-17
Cn1nc(-c2ccccc2)cc1-n1cnc2ccccc21	103	106	/	-8
CC(=O)Nc1ccc(NC(=O)CN2Cc3ccccc3C2=O)cc1	100	101	-4	-14
CC1CCCN(C(=O)COC(=O)c2cccnc2Nc2cccc(C(F)(F)F)c2)C1 (stereo unspecified)	97	97	-26	-76
c1ccc2[nH]c(NCCN3CCOCC3)nc2c1	103	100	-16	-4
O=c1oc2ccc3ccccc3c2cc1-c1nn(-c2ccccc2)cc1/C=N/O	104	108	-76	-253
O=c1c2ccccc2c2c(O)nc(-c3ccccc3)n2n1Cc1ccccc1	109	112	-14	11
Cc1cccc(S(=O)Cc2ccc(C(=O)N3CCCC3)o2)c1 (stereo unspecified)	99	101	2	34

Complete entries as entered above. Values in the order: PV pol inh	PV pol inh intensity	Mtb MenB inh	Mtb MbtI inh
CC1CCCN(C(=O)COC(=O)c2cccnc2Nc2cccc(C(F)(F)F)c2)C1 (stereo unspecified) is listed as 97	97	-26	-76
Cn1nc(-c2ccccc2)cc1-n1cnc2ccccc21 is listed as 103	106	/	-8
c1ccc2[nH]c(NCCN3CCOCC3)nc2c1 is listed as 103	100	-16	-4
CC(=O)N1CCC(N(CCN2CCOCC2)C(=S)Nc2cc(F)cc(F)c2)CC1 is listed as 98	100	-16	-17
COC(=O)c1ccc(CSc2nncn2-c2ccccc2)cc1 is listed as 103	108	-7	-11

New compounds follow.
SMILES	PV pol inh	PV pol inh intensity	Mtb MenB inh	Mtb MbtI inh
CN(C(=O)CS(=O)(=O)c1cn(CC(=O)N2CCOCC2)c2ccccc12)c1ccccc1	106	107	11	-1
Cc1ccccc1Oc1ccc(Oc2ccccc2C)nn1	103	95	/	-9
CC(C)C(=O)Nc1ccc(-c2cn3ccccc3n2)cc1	102	101	-32	91
Clc1ccc(NCc2ccsc2)cc1	100	103	21	0
CCC1CCCCN1C(=O)c1cc(Cl)ccc1OC (stereo unspecified)	100	101	-21	-26
NC(=O)C1=CN(C(=O)Nc2ccccc2)CCC1C(F)(F)F (stereo unspecified)	100	100	-15	-3
O=C1C(Nc2ccccc2)=CC(c2ccc(O)cc2)N1c1ccccc1 (stereo unspecified)	101	102	/	26
COCCn1c(SCC(N)=O)nc2c(c1=O)SCC2	102	99	-9	11
Cc1ccc2nc(NC(=O)C3SC(=NCCN4CCOCC4)C(C(=O)NCc4ccco4)=C3N)sc2c1 (stereo unspecified)	105	99	-76	70
CCCN=c1cc(-c2ccccc2)oc2ccc(C)cc12	94	88	-10	62

Brought forward from above: 2 entries, followed by the next part.
SMILES	PV pol inh	PV pol inh intensity	Mtb MenB inh	Mtb MbtI inh
Cc1ccc2nc(NC(=O)C3SC(=NCCN4CCOCC4)C(C(=O)NCc4ccco4)=C3N)sc2c1 (stereo unspecified)	105	99	-76	70
CCCN=c1cc(-c2ccccc2)oc2ccc(C)cc12	94	88	-10	62
Cc1noc(NS(=O)(=O)c2ccc(N3Cc4ccccc4C3=O)cc2)c1C	100	103	-8	-3
CCOc1ccc(-c2nonc2NC(=O)C(c2ccccc2)c2ccccc2)cc1	104	102	-37	-9
CCN(CC)c1cccc(OC(=O)/C=C/c2ccco2)c1	100	105	/	-2
COc1cc(Br)cc(/C=N/N(CCO)C2=NS(=O)(=O)c3ccccc32)c1OC	102	104	-6	-2
O=C(CSc1c[nH]c2ccccc12)NC1CCCC1	99	104	-1	10
COC(=O)c1ccc(NC(=O)N2CC(C)Oc3ccccc32)cc1 (stereo unspecified)	99	102	11	-9
Cc1ccc(C(=O)NC2CCN(C(=O)NC3CCCCC3)CC2)cc1	102	102	31	-4
Clc1ccc(-c2ncc3ccccn23)cc1	101	102	3	22

Source: PubChem BioAssay (ICCB-Longwood Screening Facility, Harvard Medical School)
